From PubChem BioAssay
BJeLR lethal: kills HRASV12-expressing BJeLR cells. BJeLR (HRASV12) viability, CellTiter-Glo ATP luminescence, 48 h; reference of the scale not given here. inhibition, % (test concentration not listed). 300,000 compounds, 0.17% hits. AID 1554;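 active means replicate mean above 50%; inconclusive means above 50% but judged a plate artefact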;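 further: 50 nL library stock added to about 25 µL; numbers are from one replicate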
Sa RN4220 lethal: kills Staphylococcus aureus RN4220; inhibition, % (no concentration beside the values); 330,000 compounds, 0.33% hits; S. aureus RN4220 growth, OD600, 16 h; AID 1259311;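 active means z-score of -3 or lower and OD600 up to 0.18 on both plates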;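 further: plate controls were untreated cells for no effect and reference antibiotic for full effect; stock transfer was 100 nL into about 80 µL; one replicate is shown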
Autofluor counter: compound fluorescence in toxin protease inhibitor counterscreen. AID 624483. fluorescence intensity (concentration not given with the values). 360,000 compounds, 3.1% hits. compound autofluorescence counterscreen, microsphere flow cytometry; stronger effect = higher value;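 active means at least 3 SD above the mean of all compounds, about 16000 in these data; inconclusive means too few beads counted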;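 further: 100 nL of 1 mM stock went into each well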
PrP 5UTR inh: inhibition of PrP 5' UTR reporter expression; cell-based PrP 5' UTR mRNA reporter, plate reader; inhibition, % (test concentration not listed); 340,000 compounds, 0.35% hits;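 active means every replicate at 50% or more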;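 further: 0 = median of the neutral control wells; tested in H4 reporter cells; numbers are from one replicate; inactives centre near -14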
Mtb hypoxia inh: Mtb hypoxia fluorescent reporter inhibition | M. tuberculosis hypoxia-regulated fluorescent reporter, fluorescence | fluorescence inhibition, % (test concentration not listed) | 300,000 compounds, 0.1% hits | AID 1159583;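 active means 35 to 45% if threefold the growth effect, above 45% if 1.5-fold the growth effect; inactive means the rest, general growth blockers included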;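 further: wells of about 50 µL received 100 nL stock; 0% = vehicle wells and 100% = reference inhibitor wells; whole bacteria with a GFP reporter of the hypoxia response; strong numbers were not always called active; many hits fall short of the cut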
Sa ugtP lethal: growth inhibition of S. aureus ugtP deletion strain; AID 1259309; growth inhibition, % (test concentration not listed); S. aureus RN4220 ugtP deletion, OD600 growth, 16 h; some inactives read as strong as hits; 330,000 compounds, 0.54% hits;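 active means z-score under -3 and OD600 up to 0.15 on both plates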;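 further: plate controls were untreated wells for no effect and antibiotic for full effect; wells of about 80 µL received 100 nL stock; the first replicate is given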
Mtb hypoxia inh growth: also measured in Mtb hypoxia inh; calls as there; growth inhibition, %; measured here: M. tuberculosis growth (absorbance);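 0% = vehicle and 100% = reference antibiotic; read after six days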
An asterisk follows results filed as active; ? = inconclusive; . = no result given; & = joins results of further samples; ! = not confirmed by another sample. Not a hit list; overall some 3.9% were active at least once.

SMILES	BJeLR lethal	Sa RN4220 lethal	Autofluor counter	PrP 5UTR inh	Mtb hypoxia inh	Mtb hypoxia inh growth	Sa ugtP lethal
CN1CCC(NC(=O)c2cccc(Oc3ccccc3)c2)CC1	-17	0.5	6072	-19	1	3	-2
Cc1cc(C=Nn2cnnc2)c(C)n1-c1ccc(Cl)cc1Cl	.	1.6	.	.	11	1	4
Cc1cc(C)cc(C(=O)NC(=S)Nc2ccc3[nH]c(=O)[nH]c3c2)c1	-1	6.1	1873	5	5	-8	11
CCOC(=O)C1=C(COC(=O)c2c(OC)cccc2OC)NC(=O)NC1C (centres undefined)	-4	2.8	5633	-13	3	7	0
Cc1cccc(C(=O)Nc2ccc(O)c3c(=O)cc(-c4ccccc4Cl)oc23)c1	-18	7.9	2978	-9	-1	-7	7
COc1ccc(N=C(C)c2c(O)n(C3CCCCC3)c(=O)[nH]c2=O)c(OC)c1	-6	5.3	3424	-12	4	3	19
O=C(NCCc1ccccc1)C(=O)NCC1CCCO1 (centres undefined)	-9	1.4	9943	-29	2	6	3
Cc1c(CC(=O)O)c(=O)oc2c(C)c(OCc3ccccc3Br)ccc12	-3	12	4095	.	-3	8	6
Cc1cccc(C)c1NC(=O)COC(=O)CCc1c[nH]c2ccccc12	.	2.8	8758	-38	.	.	2
CCS(=O)(=O)N1CCN(Cc2nc3ccccc3c(=O)[nH]2)CC1	2	9.7	3241	-21	2	2	12
CC1=CSC2=NC(=O)/C(=C\c3cccn3-c3ccccc3)C(=N)N12	1	24	8585	-12	3	0	7
CCC(=O)NC1CCN(C(=S)NC)CC1	0	2.0	4181	-3	1	8	-5
CCN(CC(=O)NCc1cccs1)C(=O)c1cc(S(=O)(=O)NCc2ccccc2)ccc1C	-7	.	?	-3	.	.	.
Cc1ccc(OCCOc2cccc3ccc(C)nc23)c([N+](=O)[O-])c1	5	6.8	3243	-27	15	20	6
O=C(C(=O)N1CCCCC1)c1c(-c2ccccc2)[nH]c2ccccc12	0	5.5	3253	3	-10	-12	3

The final 4 compounds of the part above are carried over, then new ones follow.
SMILES	BJeLR lethal	Sa RN4220 lethal	Autofluor counter	PrP 5UTR inh	Mtb hypoxia inh	Mtb hypoxia inh growth	Sa ugtP lethal
CCC(=O)NC1CCN(C(=S)NC)CC1	0	2.0	4181	-3	1	8	-5
CCN(CC(=O)NCc1cccs1)C(=O)c1cc(S(=O)(=O)NCc2ccccc2)ccc1C	-7	.	?	-3	.	.	.
Cc1ccc(OCCOc2cccc3ccc(C)nc23)c([N+](=O)[O-])c1	5	6.8	3243	-27	15	20	6
O=C(C(=O)N1CCCCC1)c1c(-c2ccccc2)[nH]c2ccccc12	0	5.5	3253	3	-10	-12	3
COc1ccc(C=Nn2c(C)nc3c([nH]c4ccccc43)c2=O)cc1CN1CCCC(C)(C)C1	.	3.4	.	.	17	7	5
Cc1ccc(N/C=C2\C(=O)C3(C)CCC2C3(C)C)cc1C (centres undefined)	11	9.4	4073	-25	9	12	5
Cc1ccc(C(=O)N/N=C/c2cc(C)n(-c3ccc(Br)cc3)c2C)cc1[N+](=O)[O-]	1	.	2500	-7	.	.	.
CC1(C)CC(=O)C2=C(C1)NC1=C(C(=O)c3ccccc31)C2c1cccnc1 (centres undefined)	-6	8.4	2547	9	11	3	1
COc1ccccc1NNC(=O)C(O)(c1ccccc1)c1ccccc1	14	6.7	5338	-35	12	-3	3
O=C1NCC(CC2CCCCC2)N(CC2CCCCC2)C1=O (centres undefined)	.	6.1	.	.	13	15	3
CCCOc1ccc(N2C(=O)CC(N(Cc3ccco3)C(=O)CCC(=O)O)C2=O)cc1 (centres undefined)	-8	2.0	4797	-26	6	-2	-1
O=C(CN1CCOCC1)N1CCCc2c1c(=O)oc1ccc(OCc3ccccc3)cc21	-5	2.8	22540*	-13	-5	5	-10
CCCc1cc(C(=O)N2CCCC(Cc3cccc(Cl)c3)(C(=O)OCC)C2)n(C)n1 (centres undefined)	12	8.1	5872	-25	16	2	1
COC(=O)c1c(C)n(Cc2ccco2)c2ccc(O)cc12	3	5.2	24915*	-9	2	6	2
CCOC(=O)C1=C(CC)Nc2ccccc2N=C1NC(=O)c1ccc(OC)c(S(=O)(=O)N2CCOCC2)c1	.	-5.3	4054	-3	-6	0	-4
O=C(CN1C(=O)/C(=C/c2c(F)cccc2Cl)Oc2ccccc21)NCc1ccco1	6	8.8	.	.	11	1	5
O=C(CC12CC3CC(CC(C3)C1)C2)NCc1ccco1	-2	-0.6	2528	6	.	.	-1
S=c1[nH]nc(-c2cc(-c3ccccc3)n[nH]2)n1N=Cc1cccc(Cl)c1	.	3.7	.	.	3	2	-18
Cc1cccc(-n2c(O)c(C=Nc3cc(O)ccc3C)c3ccccc3c2=O)n1	-5	-3.5	4365	31	10	-8	0
O=C(Nc1ccc(N2CCN(Cc3ccccc3)CC2)cc1)c1ccco1	11	2.2	5343	-12	5	5	5
O=C(COc1ncnc2sccc12)NC1CCS(=O)(=O)C1 (centres undefined)	6	4.5	3641	-7	0	-1	4
[O-]/C(=C(\C(=S)Nc1ccccc1F)[n+]1ccccc1)c1ccc(OC(F)F)cc1	4	3.6	4143	-26	10	2	0
O=C(COc1cccc(Br)c1)NN=C1c2ccccc2-c2ccccc21	3	6.3	10877	-4	7	-2	-11
CC(NC(=O)C1CCCN1C(=O)OCc1ccccc1)c1ccccc1 (centres undefined)	-12	3.1	2526	-19	13	-2	12
COc1ccccc1NS(=O)(=O)c1c(C)[nH]c(C)c1C(=O)N1CCCC1	6	3.0	4354	-34	-8	-10	7
CCOC(=O)c1cnc(-n2nc(C)cc2C)nc1NCc1ccc2c(c1)OCO2	-17	12	4113	-25	9	19	-18
COc1ccc(CNC(=O)Cc2cccs2)cc1	33	6.5	3019	-9	24	19	1
Nc1c(Br)c(=O)[nH]c(=O)n1-c1ccccc1	-10	4.5	5093	-8	1	10	10
O=C1CC(NS(=O)(=O)c2ccccc2F)CN1c1ccc2c(c1)OCCO2 (centres undefined)	-8	1.9	.	-3	1	-1	5
N#CC1=C(S)N(c2ccc(F)cc2)C2(CCCCC2)NC1=O	3	5.9	3394	-33	5	0	-2
Cc1cc(C)nc(SCc2nnc(SCC(=O)O)n2-c2ccccc2)n1	-1	4.6	4402	-13	10	11	0
NS(=O)(=O)c1ccc(N2N=C(c3ccc(Br)cc3)CC2c2ccc(F)cc2)cc1 (centres undefined)	4	98*	2395	-33	-1	3	45
O=C(NCc1ccccn1)C(=O)C1C(=O)Nc2ccccc21 (centres undefined)	0	0.1	3950	-12	-5	6	-12
Cc1c(CCOC(=O)C2C3CC4CC(C3)CC2C4)sc[n+]1CC(=O)c1ccc(Br)cc1 (centres undefined)	7	92*!	2563&4227	-4&-5	13	7	-14&-21
c1ccc(Oc2cc(-c3ccccc3)nc(-c3ccccc3)n2)cc1	-4	-14	2105	-14	2	-5	29
CC(=NNC(=O)CN1CCCCC1)c1cccc([N+](=O)[O-])c1	.	1.4	.	.	8	4	15
CCN(CC(=O)NCc1ccc(F)cc1)C(=O)Cc1ccc(OC)cc1	4	3.6	4105	-7	1	-3	4
COc1ccc(S(=O)(=O)N2CCCCCC2)cc1C(=O)N(C)CC(=O)Nc1ccc(Cl)c(Cl)c1	-1	3.7	6859	-18	4	0	0
CCOCc1c(C(=O)OCC(=O)Nc2ccccc2C(N)=O)oc2ccccc12	.	4.2	8516	-1	-8	6	-3
CCCC(=C1c2ccccc2C(=O)N1c1ccccc1)c1ccc2[nH]ccc2c1	.	-4.4	.	.	1	16	28
CCOc1ccc2nc(NC(NC(=O)CC)(C(=O)OC)C(F)(F)F)sc2c1 (centres undefined)	6	-1.8	10748	-3	-1	10	-2
COc1cc(OC)c(NC(=O)CCc2nc(-c3cccs3)no2)cc1Cl	3	4.3	4924	-20	.	.	9
CN1C(=O)Cc2cc(S(=O)(=O)Nc3ccc(Cl)cc3)ccc21	6	3.2	3802	-18	-8	-6	2
O=C1CC(=O)N(CCNc2ncc(C(F)(F)F)cc2Cl)C(=O)N1	4	4.7	3758	-6	.	.	-7
COc1cccc(C(=O)NN2c3ccccc3CCc3ccccc32)c1	-20	8.4	6788	-17	12	4	8
O=C(N/N=C/c1ccccn1)c1ccc(N/N=C/c2ccccn2)cc1	-6	.	2451	-13	.	.	.
O=C(Nc1cccc(C(=O)O)c1)/C(=C\c1ccccc1Cl)NC(=O)c1ccco1	5	-2.4	4281	-4	-7	-6	-4
O=C(NCc1ccc2c(c1)OCO2)Nc1ccc2nsnc2c1	-10	-1.9	5125	-11	5	0	-5
CC(=O)c1ccc(NC(=O)c2ccc(-n3cncn3)c([N+](=O)[O-])c2)cc1	-5	-2.8	5235	-16	-9	5	1
COc1ccc(COC(=O)CCc2c[nH]c3ccccc23)cc1F	-5	7.5	5153	-20	7	1	1
CC1=C(C(N)=O)C(c2ccc(Br)cc2)n2ncnc2N1 (centres undefined)	-7	5.2	3893	-6	9	4	9
NS(=O)(=O)c1ccc(CCNC(=O)CN2C(=O)COc3ccc(S(=O)(=O)N4CCCC4)cc32)cc1	-1	-1.0	5915	-4	-12	1	0
Cc1ccc(N2C(=O)CC(c3ccsc3)C3=C2CC(C)(C)CC3=O)cc1 (centres undefined)	-14	0.2	9212	-10	7	9	-6
CNc1c(NC(=O)C2CCC(C)CC2)c(=O)oc2ccccc12 (centres undefined)	3	0.6	3706	-17	-1	4	4
COc1ccc(CNC(=O)c2noc3c2CCCCC3)cc1	21	0.9	21035*	-53	13	11	-1
Cc1ccc(N2CCN(S(=O)(=O)c3ccc4c(c3)oc(=O)n4C)CC2C)cc1 (centres undefined)	-1	0.8	5359	-3	-17	0	4
COc1ccc(/C(O)=C2/C(=O)C(=O)N(CCN(C)C)C2c2ccc(OC)c(OC)c2)c(C)c1 (centres undefined)	0	.	2483	-4	.	.	.
CCn1c(=O)n(CC(=O)N2CCN(c3ccccc3F)CC2)c(=O)c2ccccc21	-2	3.5	3872	-26	.	.	10
COc1cc(/C=C2\SC(=S)N(N(C)c3ccccc3)C2=O)ccc1O	-10	3.8	4736	-15	-1	-17	1
CCN(CC)C1=C(Cl)C(=O)C(Cl)C12OCCO2 (centres undefined)	-8	3.3	.	-17	-8	-3	12
Cc1ccc(N(CC(=O)N2CCCCCC2)S(C)(=O)=O)cc1Cl	0	2.6	4287	-8	1	4	2
CCCCCCCCN1C(=O)C(O)=C(C(C)=O)C1c1ccccn1 (centres undefined)	-11	6.9	31940*	-63	4	5	1
Cc1cccc(NC(=S)Nc2ccc3cn[nH]c3c2)c1	-9	-4.1	2560	-15	11	5	15
O=C(c1ccccc1)C1CCN(C(=O)Nc2ccccc2)CC1	7	0.3	4842	-21	7	-2	-1

(next part)
SMILES	BJeLR lethal	Sa RN4220 lethal	Autofluor counter	PrP 5UTR inh	Mtb hypoxia inh	Mtb hypoxia inh growth	Sa ugtP lethal
COc1cccc(OCCOCCN(C)CCO)c1	9	11	3501	-16	20	9	-2
Fc1ccc(-c2nnc(Cc3ccc(Cl)cc3)o2)cc1	4	3.7	4520	-13	.	.	5
CCOc1nnnc2c1sc1nc(N3CCOCC3)c3c(c12)CCCC3	-3	5.9	2917	-13	14	6	-5
Cc1coc2cc3oc(=O)c(CC(=O)N(C)CC(=O)O)c(C)c3cc12	7	6.0	3772	-4	-5	7	11
CCN=C(Nc1cccc(F)c1)SC1CC(=O)N(c2ccc(OC)cc2)C1=O (centres undefined)	-13	-3.0	12869	-17	5	15	1
Cc1[nH]n(-c2ccccc2)c(=S)c1C=Nc1ccc([N+](=O)[O-])cc1	.	-1.8	3806	-20	-6	-1	-2
CC(C)(C)c1ccc(C(CC(=O)O)NC(=O)C23CC4CC(CC(C4)C2)C3)cc1 (centres undefined)	3	-3.4	3176	-15	4	-10	9
CCCCN(CCCC)c1ccc(C(=O)c2ccccc2C(=O)O)c(O)c1	-3	19	7815	-3	6	10	-6
CC1(C)NC(=O)N(CCOCCOc2ccccc2-c2ccccc2)C1=O	2	1.1	4530	-10	0	0	-4
COc1ccc(-n2nc(C(=O)NCC(=O)NCCc3ccc(OC)c(OC)c3)c3ccccc3c2=O)cc1	-5	2.4	4167	-20	16	5	-2
